SMN2 splice up: qHTS Assay for Enhancers of SMN2 Splice Variant Expression | HEK293 SMN2-luciferase splicing reporter, luminescence, 30-36 h | Potency, µM (titrated, usually from 46.1 µM), for inactives: at the highest dose activity change, positive = activation, hits mostly activators | actives 2.8% (n = 210,000) | AID 1458, 2008; note: % of control where 0% means no effect; nearly all actives have a fitted effect of over 55% in size
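HEK293 cells carry an SMN2 minigene-luciferase reporter in which exon 7 inclusion puts luciferase in frame. Cells were seeded at 2000 cells/well, attached for 10-12 hours, then exposed to compounds for 30-36 hours at 37C before ONE-Glo luminescence.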
L3MBTL1 block: qHTS Assay for the Inhibitors of L3MBTL1; AID 485360, 2010; Lethal(3)malignant brain tumor-like protein 1 (Homo sapiens), Q9Y468; actives 0.66% (n = 230,000); Potency, µM (series often up to 57.1 µM), inactives show at the highest dose activity, negative = inhibition, actives largely listed as inhibitors; AlphaScreen L3MBTL1–H3K9me1 peptide binding; note: % is set by controls: 0 for no effect and ±100 for the full control effect; nearly all actives have a fitted effect of over 60% in size
Target sequence (Q9Y468 whole entry, looked up): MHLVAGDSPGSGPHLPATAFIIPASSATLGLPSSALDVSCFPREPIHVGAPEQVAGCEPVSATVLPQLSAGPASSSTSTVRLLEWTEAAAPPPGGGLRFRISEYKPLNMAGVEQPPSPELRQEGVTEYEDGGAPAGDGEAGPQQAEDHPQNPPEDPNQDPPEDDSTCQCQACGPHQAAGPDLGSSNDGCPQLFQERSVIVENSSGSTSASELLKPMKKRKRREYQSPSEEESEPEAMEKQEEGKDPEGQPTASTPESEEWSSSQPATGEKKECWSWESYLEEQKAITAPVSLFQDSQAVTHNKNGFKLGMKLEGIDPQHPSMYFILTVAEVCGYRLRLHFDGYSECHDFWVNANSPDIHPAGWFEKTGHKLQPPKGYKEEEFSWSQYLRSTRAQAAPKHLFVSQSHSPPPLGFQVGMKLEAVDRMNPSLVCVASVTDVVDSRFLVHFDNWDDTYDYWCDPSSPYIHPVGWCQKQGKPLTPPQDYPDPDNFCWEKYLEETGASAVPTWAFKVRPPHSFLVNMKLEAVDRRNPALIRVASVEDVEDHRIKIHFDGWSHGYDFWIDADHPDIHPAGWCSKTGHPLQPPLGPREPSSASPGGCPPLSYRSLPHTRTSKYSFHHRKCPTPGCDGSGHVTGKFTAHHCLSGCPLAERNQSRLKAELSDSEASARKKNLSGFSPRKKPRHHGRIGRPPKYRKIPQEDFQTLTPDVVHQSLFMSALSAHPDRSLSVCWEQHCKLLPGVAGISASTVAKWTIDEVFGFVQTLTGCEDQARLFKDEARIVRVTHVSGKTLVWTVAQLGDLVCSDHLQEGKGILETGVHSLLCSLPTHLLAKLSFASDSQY
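Displacement of a biotinylated histone H3(1-15) peptide monomethylated at Lys9 (75 nM) from L3MBTL1 (50 nM) was measured by AlphaScreen after a 30 min room-temperature compound incubation; cefsulodin titration served as intraplate control.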
JMJD2E inh: qHTS Assay for Inhibitors of Human Jumonji Domain Containing 2E (JMJD2E); JMJD2E catalytic domain, FDH-coupled NADH fluorescence (FDH is formaldehyde dehydrogenase); Potency, µM (highest dose often 57.1 µM), inactives show top-dose activity change, negative = inhibition, hits mostly inhibitors; actives 1.6% (n = 230,000); active = well fitted inhibition curve with a large enough effect, not every such curve was filed as active; inconclusive = small, poorly fitted or top-dose-only effect, or another doubt; inactive = no such curve, though single readings can be large or run the other way;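 note: 0% = wells with enzyme and -100% = buffer wells without enzyme; nearly all actives have a fitted effect of over 50% in size; many of its hits are not listed in these tables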
KinaseGlo FLuc: Counterscreen for Luciferase (Kinase-Glo TM) Inhibition; Potency, µM (top dose mostly 38.3 µM), for inactives: at the highest dose activity change, negative = inhibition, most hits filed as inhibitors; Kinase-Glo luciferase, ATP luminescence, 8 min; actives 0.28% (n = 200,000); AID 1379, 2008; note: % is set by controls: 0 for no effect and ±100 for the full control effect; nearly all actives have a fitted effect of over 60% in size
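Compound is pinned into ATP-containing buffer (10 uM ATP, imidazole pH 7.2, 7 mM MgCl2). Kinase-Glo luciferase reagent is then added. Light output is recorded following an 8-min room-temperature incubation.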
LMNA splice mod: qHTS Assay for Modulators of Lamin A Splicing | Potency, µM (titrated, usually from 46.1 µM), for the others: at the top dose ratio change, negative = inhibition, hits mostly inhibitors | HeLa LMNA splicing GFP/RFP minigene ratio, 48 h | actives 0.01% (n = 200,000); active = well fitted inhibition curve with a large enough effect in the signal ratio, with a control signal flat, not every such curve was filed as active; inconclusive = small, poorly fitted or top-dose-only effect, or effect the other way, or a change in a side signal; the % refers to the signal ratio; note: % is set by controls: 0 for no effect and ±100 for the full control effect
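S3 HeLa cells stably expressing lamin A-EGFP splicing minigene plus DsRed2, 600 cells/well, 48 h compound exposure at 37C. Laser-scanning cytometry; analysed as GFP (500-530 nm)/RFP (575-640 nm) total intensity ratio; 0.5% DMSO vehicle.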
Tau ThT inhib: qHTS for Inhibitors of Tau Fibril Formation, Thioflavin T Binding. Microtubule-associated protein tau (Homo sapiens), P10636. recombinant tau K18 P301L, heparin-induced fibrillization, ThT fluorescence. Potency, µM (doses to about 57.4 µM), without a hit: at the highest dose activity, negative = inhibition, usual class: inhibitors. actives 2.1% (n = 270,000). AID 1460, 2008; note: % is set by controls: 0 for no effect and ±100 for the full control effect; nearly all actives have a fitted effect of over 55% in size
Target sequence (P10636 561-689 P618L limits assumed): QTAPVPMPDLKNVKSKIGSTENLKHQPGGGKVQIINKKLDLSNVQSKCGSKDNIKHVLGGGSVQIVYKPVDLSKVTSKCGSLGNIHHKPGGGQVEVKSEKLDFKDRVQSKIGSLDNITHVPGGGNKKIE
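Using a mix of unlabeled (15 uM) and Alexa 594-labeled (0.24 uM) tau K18 P301L, heparin-triggered fibrillization over 6 hr at 37 C was scored by ThT fluorescence.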
RECQ1 inh: qHTS Assay for Inhibitors of RecQ-Like Dna Helicase 1 (RECQ1); ATP-dependent DNA helicase Q1 (Homo sapiens), P46063; RECQ1 DNA unwinding, red fluorescence kinetic read; Potency, µM (top dose mostly 57.3 µM), for the others: at the highest dose activity, negative = inhibition, hits mostly inhibitors; actives 0.54% (n = 240,000); AID 2549, 2010;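 note: plate controls were vehicle for no effect and no enzyme for full effect; nearly all actives have a fitted effect of over 30% in size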
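50 nM RECQ1T1 preincubated 15 min with compound in Tris pH 8.0 buffer with MgCl2, DTT, Tween-20 and 2.5 ug/ml poly(dI-dC); started with 200 nM TAMRA/BHQ-2 forked duplex and 2 mM ATP. Unwinding read as fluorescence (525/598 nm), two reads 2 h apart.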
An asterisk follows results filed as active; i = inactive; ? = inconclusive; nt = no result given; [ ] = remark or other dose. Unless noted, calls come from the whole dose curve; as a rule, active = well fitted curve in the direction sought with a large enough effect; inconclusive = small, poorly fitted or top-dose-only effect, or another doubt; inactive = no such curve, though single readings can be large; an effect the other way counts as inactive or inconclusive. Potency is the fitted concentration of half-maximal effect.

Second line of a record – JMJD2E inh	L3MBTL1 block	SMN2 splice up	KinaseGlo FLuc	LMNA splice mod	RECQ1 inh	Tau ThT inhib
(1) Cc1c2ccccc2nc2c(F)c(NC(C)C)c(F)c(F)c12
  ?	32%[activator]	16µM*	-3%	-23%	-4%	?
(2) O=C(COC(=O)c1ccc(S(=O)(=O)Nc2ccccc2)cc1)NC1CCCC1
  -17%	0%	10%	4%	-13%[46 µM]	i	-4%
(3) COC(=O)CC(NS(=O)(=O)c1cccs1)c1ccccc1Cl (stereo unspecified)
  -1%	?	19%	5%	2%	3%	2%
(4) COC1(OC)N=C(NC(=O)Nc2ccccc2)C2(C#N)C(c3ccccc3)C12C#N (stereo unspecified)
  -8%	2%	3%	-2%	10%	i	20µM*
(5) O=C(C[n+]1ccccc1)Nc1nc2ccccc2s1
  3%	1%	14%	2%	-1%	i	2%
(6) CC(C)(C)CC(=O)Nc1ccc(Nc2ccccc2)cc1
  2%	-2%	-6%	-4%	-11%	4%	-20%
(7) CNc1cc(-n2nc(C)cc2-c2ccccc2)ncn1
  4%	-5%	-6%	-3%	-13%	-13%	-7%
(8) CCOc1ccccc1CN(Cc1ccco1)S(=O)(=O)c1ccc(-n2cnnn2)c(OC)c1
  -7%	1%	-11%	-5%	-17%	-5%	?
(9) Clc1ccc2nc(CSc3nncn3-c3ccccc3)cn2c1
  4%	2%	-8%	-1%	1%	-3%	-2%
(10) COc1ccc(C)cc1NC(=O)C12CCC(C)(C(=O)O1)C2(C)C (stereo unspecified)
  2%	nt	-24%	-2%	1%	i	5%

Structures above marked active in Tau ThT inhib:
item | mol | JMJD2E inh | LMNA splice mod | RECQ1 inh | Tau ThT inhib
4 | COC1(OC)N=C(NC(=O)Nc2ccccc2)C2(C#N)C(c3ccccc3)C12C#N (stereo unspecified) | -8% | 10% | i | 20µM*

Later entries
Second line of a record – JMJD2E inh	L3MBTL1 block	SMN2 splice up	KinaseGlo FLuc	LMNA splice mod	RECQ1 inh	Tau ThT inhib
(11) c1ccc(C(c2ccccc2)c2nc(-c3cccnc3)no2)cc1
  3%	10%	nt	nt	-8%	-9%	-3%
(12) COCCCNC(=O)CS(=O)(=O)Cc1nc(-c2cccc(OC)c2)oc1C
  -6%	7%	-23%	0%	-1%	-1%	1%
(13) Cc1cccc(C(=O)NC2=NCCS2)c1
  ?	-1%	nt	-20%	nt	-9%	-12%
(14) CC(C)n1cc(CN2CCCC(CO)(Cc3cccc(Cl)c3)C2)cn1 (stereo unspecified)
  9%	41%[activator]	nt	3%	nt	i	5%
(15) CC(=O)N1C(=O)/C(=C2\SC(=S)N(NC(=O)c3ccc(O)cc3)C2=O)c2ccccc21
  ?	?	3%	-3%	?	i	25µM*
(16) CSc1ccc(C2C3(C#N)C(N)=NC4(OCCO4)C23C#N)cc1 (stereo unspecified)
  -10%	-4%	-11%	-2%	15%	-2%	-14%
(17) COc1ccccc1C(=O)Nc1nc(N)n(-c2ccccc2)n1
  11%	-5%	-10%	-3%	-12%	i	-2%
(18) O=C(CC1CCOCC1)Nc1ccc(Cl)c(Cl)c1
  3%	2%	19%	0%	-3%[46 µM]	15%	-4%
(19) COc1ccc(-c2noc(CCC(=O)Nc3nc4ccccc4s3)n2)cc1
  0%	nt	2%	2%	5%	i	?
(20) CCc1ccc(OCc2nnc(NC(=O)c3cccs3)s2)cc1
  5%	nt	11%	-5%	-5%	-10%	-9%
(21) CSc1nsc(SCC(=O)NC2CCCCC2)n1
  8%	nt	14%	1%	-15%	i	-2%
(22) COc1ccccc1CN1CC[C@@]2(CCCN(S(=O)(=O)c3ccccc3)C2)C1
  nt	nt	-6%	-4%	nt	-7%	nt
(23) Cn1c(=O)c2c(ncn2CC(=O)OCC(=O)Nc2cccc(Cl)c2)n(C)c1=O
  10%	0%	21%	7%	?	-3%	-7%
(24) O=C(Nc1cccc(O)c1)c1ccc(C(F)(F)F)cc1
  -13%	2%	nt	-13%	?	-1%	?
(25) Cc1ccnc(NS(=O)(=O)c2ccc(NC(=O)c3ccc(S(=O)(=O)N4CC(C)OC(C)C4)cc3)cc2)n1 (stereo unspecified)
  -2%	3%	13%	2%	14%	i	-4%
(26) COc1cccc(C(C(=O)NC(C)(C)C)N(C(=O)CCC(=O)Nc2cc(C)on2)C2CC2)c1OC (stereo unspecified)
  3%	nt	9%	-1%	2%	i	-1%
(27) CN(CCCNC(=O)C1CCN(S(=O)(=O)c2cccc3nsnc23)CC1)Cc1ccccc1
  9%	-10%	-12%	-3%	6%	-3%	-8%
(28) O=C(Nc1ccc(Cl)cn1)c1ccccc1[N+](=O)[O-]
  -10%	nt	-24%	2%	nt	-1%	-14%
(29) Cc1ccc(S(=O)(=O)N2CCCC2C(=O)n2nc(C)cc2C)cc1 (stereo unspecified)
  0%	6%	nt	-2%	12%	-6%	-9%
(30) COc1ccccc1/C=N/NC(=O)c1ccc(Br)cc1
  -5%	nt	7%	0%	nt	4%	?
(31) Cn1ccnc1C1CCCCN1Cc1nc(-c2ccc3c(c2)OCO3)no1 (stereo unspecified)
  4%	-12%	nt	nt	nt	-1%	-7%
(32) Cc1ccc(C(=O)N/C(=C\c2ccc(-c3ccc(Br)cc3)o2)C(=O)NC2CCS(=O)(=O)C2)cc1 (stereo unspecified)
  -1%	-6%	-11%	5%	?	3%	5%
(33) Cc1ccc(NC(=O)COC(=O)c2ccccc2Cl)cc1S(=O)(=O)N(C)C
  -5%	-5%	-10%	2%	12%[9.22 µM]	-4%	-4%
(34) Cc1c(OCc2ccc([N+](=O)[O-])cc2)ccc2c3c(c(=O)oc12)CCC3
  -9%	5%	5.6µM*	-1%	-2%	0%	?
(35) COc1ccc(CCC(=O)Nc2ccc(-c3noc(-c4ccc(OC)c(OC)c4)n3)cc2)cc1
  ?	9%	11µM*	0%	15%	-12%	-5%
(36) CN1CCCN(Cc2nc(-c3ccc(Cl)cc3)no2)CC1
  ?	-6%	nt	1%	nt	-5%	-10%
(37) CCOc1cc(C(=O)CSc2nnc(CNc3ccc(Cl)cc3)o2)ccc1NC(=O)CC
  -2%	4%	nt	1%	1%	-2%	-7%
(38) COc1ncc2ncc(=O)n(CCC#N)c2n1
  nt	nt	0%	-1%	nt	-2%	nt
(39) Cc1sc2c(c1C)c(=O)n(-c1ccc(F)cc1)c(=O)n2CC(=O)NCc1ccco1
  0%	5%	-9%	-6%	10%	-5%	-7%
(40) Cc1ccc(S(=O)(=O)NC2(C(F)(F)F)NC(=O)N(C)C2=O)cc1 (stereo unspecified)
  1%	-4%	1%	-2%	-9%	-6%	10%
(41) Cc1ccc(NC(=O)CS(=O)(=O)c2c[nH]c3ccccc23)c(C)c1
  3%	7%	-4%	0%	?	i	-10%
(42) CC(Sc1nncs1)C(=O)Nc1ccc2c(c1)OCO2 (stereo unspecified)
  0%	-9%	?	0%	nt	i	-13%
(43) CCCN1C(=S)SC(C)(C)C1/[N+]([O-])=C/c1cccnc1 (stereo unspecified)
  6%	nt	-4%	3%	2%	-13%	-1%
(44) Cc1ccc2c(C)[nH]c(=O)cc2c1
  2%	-4%	-19%	-1%	?	5%	4%
(45) CCn1c(CCNC(=O)c2ccc(Cl)cc2)n[nH]c1=S
  5%	nt	5%	18%	4%	-12%	-6%
(46) COc1ccc(CC(=O)n2[nH]c(=O)c3ccccc3c2=O)cc1OC
  2%	10%	nt	nt	6%[46 µM]	i	-7%
(47) CCC1Oc2ccc(C)cc2N(CC(=O)NCCN2C(C)CCCC2C)C1=O (stereo unspecified)
  -6%	36%[activator][11.4 µM]	?	0%	7%	11%	-1%
(48) Cc1ccc(/C=N/NC(=O)Cn2cncn2)cc1
  3%	nt	-14%	-3%	nt	0%	-16%
(49) CN1CCN(CCCNC(=O)C2CCN(c3nnc(-n4cccc4)s3)CC2)CC1
  12%	-2%	2%	1%	-1%	i	-9%
(50) Cc1nn(C(C)(C)C)c(OC(=O)c2ccc3c(c2)OCO3)c1S(=O)(=O)c1ccccc1
  ?	-4%	17%	1%	?	-6%	-13%

Grouped by structure: the entries above with bromine
Second line of a record – JMJD2E inh	L3MBTL1 block	SMN2 splice up	KinaseGlo FLuc	LMNA splice mod	RECQ1 inh	Tau ThT inhib
(30) COc1ccccc1/C=N/NC(=O)c1ccc(Br)cc1
  -5%	nt	7%	0%	nt	4%	?
(32) Cc1ccc(C(=O)N/C(=C\c2ccc(-c3ccc(Br)cc3)o2)C(=O)NC2CCS(=O)(=O)C2)cc1 (stereo unspecified)
  -1%	-6%	-11%	5%	?	3%	5%

Next compounds:
Second line of a record – JMJD2E inh	L3MBTL1 block	SMN2 splice up	KinaseGlo FLuc	LMNA splice mod	RECQ1 inh	Tau ThT inhib
(51) COc1cccc(C(=O)OCCN2CCCCC2)c1
  -3%	-22%	-4%	6%	-6%	7%	3%
(52) COc1ccc(OC)c(NC(=O)CC(NC(C)=O)c2ccccc2)c1 (stereo unspecified)
  -1%	nt	5%	-2%	nt	-2%	-9%
(53) O=C(CCC1COc2ccccc2O1)NC1CCCCC1 (stereo unspecified)
  1%	nt	8%	1%	7%	i	-9%
(54) CCOC(=O)N1CCC(NC(=O)c2cc(C(=O)NCC(OC)OC)ccc2CO)CC1
  8%	nt	0%	-1%	15%	-12%	4%
(55) CC(=O)Nc1cccc(NC(C)=C(C#N)C#N)c1
  -3%	14%	8%	0%	-7%	7%	8%
(56) OCCC1CN(Cc2cnc(-c3ccc(Cl)cc3)nc2)CCN1C1CCCCC1 (stereo unspecified)
  10%	-2%	nt	-2%	?	-11%	-8%
(57) CC(C)c1cc(C(=O)NCc2ccco2)no1
  -8%	-3%	?	-13%	-3%	0%	?
(58) Nc1nncn1C(=O)CCCOc1ccccc1
  8%	3%	-3%	-2%	?	-4%	-6%
(59) CCC(Sc1nc(=O)cc(N)n1-c1ccccc1)C(=O)Nc1cc(C)on1 (stereo unspecified)
  -6%	-2%	-13%	-4%	1%	-4%	-15%
(60) COc1ccc(NC(=O)C2CC(=O)N(c3cccc(C)c3C)C2)cc1 (stereo unspecified)
  0%	-4%	-5%	-3%	-5%	-2%	-8%

These rows are one share of the data, so the mix of outcomes need not match the whole.
